Compound activity: PubChem BioAssay, several laboratories
HNF4A DNA FP: change in binding of human HNF4A to DNA, primary screen, biochemical, fluorescence polarization, FITC-DNA | Hepatocyte nuclear factor 4-alpha (Homo sapiens), P41235 | 1 h | activity change, % at 10 µM | 360,000 tested, 0.3% active; in the data active = activity change above about 30%, passing the limit was not always enough;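 also: controls were the assay level and a saturating level of protein; the project sought stronger binding though the title names inhibitors; some compounds called inactive have numbers as strong as hits; positive values seem to mean higher polarization but the record does not say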
Target sequence (P41235 whole entry, looked up): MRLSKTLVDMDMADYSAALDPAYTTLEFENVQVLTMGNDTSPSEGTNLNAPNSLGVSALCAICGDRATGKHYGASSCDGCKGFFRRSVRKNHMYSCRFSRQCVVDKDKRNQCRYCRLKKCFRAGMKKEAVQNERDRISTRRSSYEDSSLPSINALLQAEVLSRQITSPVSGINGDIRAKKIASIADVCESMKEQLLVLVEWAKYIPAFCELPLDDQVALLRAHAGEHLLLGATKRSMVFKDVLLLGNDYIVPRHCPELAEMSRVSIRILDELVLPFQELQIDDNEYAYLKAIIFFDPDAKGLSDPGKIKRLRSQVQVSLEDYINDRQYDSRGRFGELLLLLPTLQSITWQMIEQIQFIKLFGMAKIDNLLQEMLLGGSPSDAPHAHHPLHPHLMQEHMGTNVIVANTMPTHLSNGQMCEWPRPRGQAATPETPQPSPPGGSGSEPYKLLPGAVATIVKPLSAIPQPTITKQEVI
Vif TR-FRET: inhibitors of Vif binding to APOBEC3G peptide, primary screen, biochemical, TR-FRET, GST-Vif 1-94, biotin-A3G peptide, dose response retest (AID 1117319); Virion infectivity factor (Human immunodeficiency virus type 1 group M subtype B (isolate …; inhibition, %; hits with a dose series show IC50 in µM; 260,000 tested, 0.57% active; TR-FRET GST-Vif / biotin-A3G peptide binding; higher % means a stronger effect; test concentration not given here; strong numbers were not always called active;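 active = above the screen mean plus three standard deviations and confirmed in dose response; inconclusive = results disagree or hit not tested in dose response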;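 also: Vif residues 1-94 fused to GST binding biotinylated APOBEC3G peptide 110-148; 0% = full assay without inhibitor and 100% = GST in place of GST-Vif; retest series ran down from 100 µM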
Ecoli growth: E. coli growth inhibition, primary screen, OD600 | Escherichia coli growth, 23 h; hits give low values | OD600 absorbance (no concentration beside the values) | 330,000 tested, 0.21% active | AID 1053175, 2014;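 active = OD600 absorbance below the run mean of sample wells minus 3.6 SD, in any replicate, cut at about 0.56 in these data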;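 also: stock transfer was 300 nL into about 60 µL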
Ecoli rRNA inh: reduced GFP signal of wild-type E. coli, primary screen, bacterial rRNA inhibitor project, GFP/RFP fluorescence, OD600, single point | E. coli WT GFP vs humanized-ribosome RFP mutants, 24 h; hits give low values; DMSO median 0, no signal -100 | GFP signal change (wild-type ribosome), % (test concentration not listed) | 350,000 tested, 1.6% active;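 active = significant combined selectivity score with lowered wild-type GFP, culture density cut under 30%, mutant RFP and density less affected; inactive = any of these conditions unmet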; also: one replicate is shown; some compounds called inactive have numbers as strong as hits
FGF22 binding: binders of human FGF22 protein, primary screen, FGF22 synaptogenesis inhibitor project, biophysical, thermal shift, single point. Fibroblast growth factor 22 (Homo sapiens), Q9HCT0. recombinant FGF22 thermal shift, SYPRO orange fluorescence; percent of sucrose octasulfate shift, DMSO zero. calls only at 9.99 µM. 340,000 tested, 1.5% active;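 active = melting point raised past a set limit in the mean and every replicate; inconclusive = no clear call; three in four hits are not shown here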
Target sequence (Q9HCT0 whole entry, looked up): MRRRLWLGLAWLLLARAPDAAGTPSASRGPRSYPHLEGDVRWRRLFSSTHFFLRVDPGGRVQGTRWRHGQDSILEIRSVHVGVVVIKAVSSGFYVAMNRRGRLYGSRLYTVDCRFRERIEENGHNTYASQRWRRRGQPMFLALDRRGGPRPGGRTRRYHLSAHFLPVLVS
AF4-AF9 inh: inhibitors of AF4 peptide binding to AF9, primary screen, biochemical, AlphaScreen, biotin-AF4 peptide, FLAG-AF9, single point; inhibition, % at 10 µM; AID 651704, 2012; 350,000 tested, 0.47% active; Protein AF-9 (Homo sapiens), P42568;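 active = every replicate reaching a set inhibition limit, whatever the replicate mean, cut at about 25% in these data; inconclusive = mean inhibition reaches that limit but some replicates miss it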;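 also: 0% = plate neutral control median and 100% = total signal loss; the record names both 10 and 1 µM as test concentration; the first replicate is given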
ALR H2O2 inh: inhibitors of human ALR sulfhydryl oxidase, primary screen, biochemical, H2O2 detection, HRP-luminol luminescence, single point | inhibition, % (test concentration not listed) | AID 485317, 2010 | FAD-linked sulfhydryl oxidase ALR (Homo sapiens), P55789 | 290,000 tested, 3.8% active | purified ALR, DTT oxidation;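 active = mean and each replicate at 75% or more; inconclusive = only one of the two met; inactive = neither met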;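 also: stock transfer was 7.5 nL into about 7.5 µL; 0% = neutral wells and 100% = wells with inactivated enzyme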
Target sequence (P55789 whole entry, looked up): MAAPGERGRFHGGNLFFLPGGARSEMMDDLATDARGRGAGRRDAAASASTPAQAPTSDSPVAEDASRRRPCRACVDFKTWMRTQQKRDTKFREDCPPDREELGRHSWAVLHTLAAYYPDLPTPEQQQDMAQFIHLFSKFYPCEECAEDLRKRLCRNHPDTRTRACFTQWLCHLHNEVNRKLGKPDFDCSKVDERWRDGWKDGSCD
Ecoli rRNA inh OD600: recorded beside Ecoli rRNA inh, whose call it bears; OD600 change, %; measured here: OD600 growth;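 optical density of the mix in the first replicate; 0 = DMSO median and -100 = no signal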
Ecoli rRNA inh RFP: recorded beside Ecoli rRNA inh, whose call it bears; RFP signal change, %; measured here: RFP humanized mutant strains;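 first replicate; 0 = DMSO median and -100 = no signal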
* = called active by the depositor; i = inactive; ? = inconclusive; . = not tested or not shown; + = active, no number; & = joins results of further samples.

A first look (3 entries):
SMILES | HNF4A DNA FP | Vif TR-FRET | Ecoli growth | Ecoli rRNA inh | Ecoli rRNA inh OD600 | Ecoli rRNA inh RFP | FGF22 binding | AF4-AF9 inh | ALR H2O2 inh
CCOC(=O)c1c(NC(=O)CCN2C(=O)c3ccccc3C2=O)sc(C(=O)OC(C)C)c1C | 1.3 | 3% | 0.74 | . | . | . | . | . | 2
CC1CCCCC1NCC(=O)Nc1ccccc1-c1ccccc1 (centres undefined) | 0.7 | -12% | 0.74 | . | . | . | . | . | -3
C[C@H](CO)N1C[C@H](C)[C@@H](CN(C)C(=O)[C@@H]2CCCN2C)OCc2ccccc2-c2c(n(C)c3ccccc23)C1=O | . | . | . | 3 | 8 | -1.2 | i | -8.0 | .

The list itself, from the first entry:
SMILES | HNF4A DNA FP | Vif TR-FRET | Ecoli growth | Ecoli rRNA inh | Ecoli rRNA inh OD600 | Ecoli rRNA inh RFP | FGF22 binding | AF4-AF9 inh | ALR H2O2 inh
CCOC(=O)c1c(NC(=O)CCN2C(=O)c3ccccc3C2=O)sc(C(=O)OC(C)C)c1C | 1.3 | 3% | 0.74 | . | . | . | . | . | 2
CC1CCCCC1NCC(=O)Nc1ccccc1-c1ccccc1 (centres undefined) | 0.7 | -12% | 0.74 | . | . | . | . | . | -3
C[C@H](CO)N1C[C@H](C)[C@@H](CN(C)C(=O)[C@@H]2CCCN2C)OCc2ccccc2-c2c(n(C)c3ccccc23)C1=O | . | . | . | 3 | 8 | -1.2 | i | -8.0 | .
Cc1cc(C)cc(C(O)c2ncc(-c3ccc(C(F)(F)F)cc3)[nH]2)c1 (centres undefined) | 3.7 | . | . | -30 | -58 | 14 | i | 5.2 | .
COc1ccc(-c2cc(C(=O)N3CCN(c4ncccn4)CC3)c3ccccc3n2)c(OC)c1 | 4.4 | ? | 0.74 | . | . | . | . | . | .
CCc1ccc(OCC(=O)Nc2ccc(S(=O)(=O)Nc3cc(C)on3)cc2)c(Br)c1 | -0.3 | . | 0.7 | -53 | -79 | -18 | i | 0.2 | 9
Cc1cc(NC(=O)c2ccc3c(c2)C(=O)N(Cc2cccnc2)C3=O)no1 | 3.9 | 7% | 0.66 | . | . | . | . | . | -7
CCc1nnc(NC(=O)CCC(=O)Nc2ccccc2)s1 | 5.2 | -7% | 0.69 | . | . | . | . | . | 0
Clc1ccc(-c2cc(C3CCNCC3)[nH]n2)c(Cl)c1 | 1.0 | 6% | 0.61 | -14 | -19 | -2.9 | i | 4.3 | 0
CCOC(=O)c1c(NC(=O)C2=C(C)NC(=S)NC2c2ccc(F)cc2F)sc(C)c1C (centres undefined) | -0.6 | . | 0.67 | . | . | . | i | 0.0 | 1
Cc1ccc(C(=O)NC2c3ccccc3-c3ccccc32)cc1 | -0.4 | . | 0.71 | . | . | . | . | . | -2
Cc1c(NC(=O)CSc2nnnn2C)c(=O)n(-c2ccccc2)n1C | 1.2 | -2% | 0.79 | . | . | . | . | . | -6
O=C(CCN1C(=O)c2ccccc2C1=O)NC1=NCCS1 | -2.7 | -3% | 0.69 | . | . | . | . | . | -8
O=C(NCC(=O)N1CCN(Cc2ccc3c(c2)OCO3)CC1)c1ccccc1F | -0.9 | -3% | 0.68 | 15 | 12 | 2.1 | i | 2.2 | 0
CC(OC(=O)CC1CC2CCC1C2)C(=O)Nc1cccc(S(=O)(=O)N2CCOCC2)c1 (centres undefined) | -0.4 | 1% | 0.56 | -4 | 2 | 4.4 | i | -1.4 | -4
C[C@H]1CN([C@@H](C)CO)C(=O)c2cccc(NC(=O)NC3CCCCC3)c2O[C@@H]1CN(C)S(=O)(=O)c1ccccc1 | . | . | . | -2 | 4 | -3.6 | i | 0.6 | .
O=C(NCCc1ccc(Cl)cc1)C(=O)c1c[nH]c2ccccc12 | -0.5 | 0% | 0.67 | 4 | 2 | 1.2 | i | -4.9 | -9
O=C(C[C@@H]1CC[C@H]2[C@@H](COC[C@@H](O)CN2S(=O)(=O)c2ccc(Oc3ccccc3)cc2)O1)Nc1ccccc1 | . | . | . | -8 | -46 | 17 | i | 1.8 | .
C/C(=N\Nc1nccnc1Cl)c1ccc(F)cc1 | 2.4 | 22% | . | 18 | 15 | 0.7 | i | -0.6 | 2
CC1(C)CNC(=S)N1Cc1ccccc1 | 1.9 | 21% | . | 15 | 12 | 4.8 | i | 6.5 | .
CN1CCCCN2[C@H](C1)[C@H](c1ccc(C#CC3(O)CCCC3)cc1)[C@@H]2CO | . | . | . | 0 | 8 | -2.2 | i | 0.6 | .
O=C(Nc1cc(S(=O)(=O)N2CCCCC2)ccc1N1CCOCC1)c1ccc(C(F)(F)F)cc1 | -2.2 | -4% | 0.67 | -1 | -18 | -1.7 | i | -0.7 | -18
C[C@@H]1CN([C@@H](C)CO)C(=O)Cc2cc(NC(=O)CCN3CCOCC3)ccc2O[C@@H]1CN(C)S(C)(=O)=O | . | . | . | 0 | -1 | -0.2 | i | -0.2 | .
O=C(Nc1ccc(NS(=O)(=O)c2ccccc2)cc1)c1cccnc1 | -5.6 | 21% | 0.63 | 3 | -3 | -3.6 | . | -2.6 | -3
COc1ccccc1C(=O)CSc1nccn1C | 3.0 | . | 0.66 | 1 | 7 | -0.7 | i | -4.2 | .
Cc1ccsc1/C=N/NC(=O)c1ccc(-n2cccc2)cc1 | -3.6 | . | . | 1 | 2 | 8.8 | i | 4.0 | 23
COc1ccc(CN=C2NC(=O)CC(C(=O)Nc3cc(C)cc(C)c3)S2)cc1 (centres undefined) | -0.6 | -1% | 0.66 | . | . | . | . | . | 0
O=C(CNC(=O)c1ccc(Br)cc1)NC1CC1 | -2.0 | -16% | 0.65 | 3 | 9 | 2.3 | i | 1.4 | -2
CNCCc1ccccn1 | -1.3 | 32% | 0.67 | 9 | 15 | -2.3 | i | -8.1 | .
CC(C)(C)C(c1nc2ccccc2[nH]1)n1c(-c2cc(Cl)cc(Cl)c2)nc2ccccc21 (centres undefined) | 12 | . | . | 6 | -5 | 0.0 | i | . | .
Cc1cccc(-c2ccc([C@H]3[C@@H](CO)N4CCCCN(CCC(F)(F)F)C[C@@H]34)cc2)c1 | . | . | . | -57 | -73 | -12 | i | 6.7 | .
CCCNC(=O)c1cn(CC)c2cc(N3CCN(C(=O)c4ccco4)CC3)c(F)cc2c1=O | -28 | . | 0.089* | -53 | -77 | -11 | i | 0.9 | 4
C[C@@H]1CN([C@H](C)CO)S(=O)(=O)c2ccc(-c3cncnc3)cc2O[C@@H]1CN(C)Cc1ccccn1 | . | . | . | 6 | 17 | -3.0 | i | -2.8 | .
CC(C)C(NC(=O)c1ccc(C(C)(C)C)cc1)C(=O)O (centres undefined) | 0.8 | 0% | 0.68 | . | . | . | . | . | -5
C[C@H](CO)N1C[C@H](C)[C@@H](CN(C)C(=O)c2ccccc2)Oc2cc(C#CC3CC3)ccc2S1(=O)=O | . | . | . | -3 | -19 | 4.6 | i | 2.8 | .
N#C[C@@H]1[C@H](c2ccccc2-c2ccccc2F)[C@H](CO)N1C(=O)C1CCOCC1 | . | . | . | -2 | 2 | -3.0 | i | 0.6 | .
O=C(NCc1ccc2c(c1)OCO2)c1cc(COc2c(F)cccc2F)on1 | -8.7 | . | 0.69 | -9 | -34 | -0.7 | i | 1.0 | -4
Cc1cnc(C(=O)OCC(=O)Nc2ccc(C)c(S(=O)(=O)N3CCCCCC3)c2)cn1 | 3.4 | -9% | 0.67 | 10 | 8 | 3.1 | i | -1.7 | -11
COc1c(F)c(F)c(C(=O)O)c(Nc2cccc(C)c2)c1F | 1.0 | 4% | 0.7 | -3 | -8 | 2.3 | i | -2.8 | -3
N#Cc1c(NC(=O)c2ccc(N3CCOCC3)c([N+](=O)[O-])c2)sc2c1CCCC2 | -0.3 | . | 0.64 | 3 | 6 | -9.8 | i | -6.6 | 6
CN(C(=O)COc1ccc(S(=O)(=O)N2CCOCC2)cc1[N+](=O)[O-])C1CCS(=O)(=O)C1 (centres undefined) | 3.2 | -2% | 0.66 | 11 | 9 | 0.1 | i | -2.6 | .
COC(=O)c1nnn(-c2ccc(F)c(Cl)c2)c1C(=O)OC | 2.9 | . | 0.73 | 11 | 6 | -0.9 | i | -2.5 | -5
Cc1ccc(C(=O)N/C(=C/c2ccco2)C(=O)Nc2cccc(C)c2)cc1 | 9.8 | 11% | 0.63 | . | . | . | . | . | -2
C[C@@H]1CCCCO[C@@H](CN(C)CC2CCCCC2)[C@H](C)CN([C@H](C)CO)C(=O)c2cc(NS(=O)(=O)c3cn(C)cn3)ccc2O1 | . | . | . | 4 | 7 | 0.2 | i | -2.9 | .
CCOc1cc(C(=O)Nc2cccc(OCC(=O)N3CCOCC3)c2)cc(OCC)c1OCC | 0.7 | . | 0.67 | 9 | 7 | -1.1 | i | -6.1 | -8
COc1cc(C2C(C(=O)c3sc(C)nc3C)=C(O)C(=O)N2CCN(C)C)cc(OC)c1OC (centres undefined) | -0.6 | 0% | 0.65 | . | . | . | . | . | .
CCOC(=O)C1CCN(C(=O)c2[nH]c3ccc(OC)cc3c2C)CC1 | 0.3 | . | 0.63 | -5 | 6 | -7.7 | i | -5.1 | -2
Cc1cnc(C(=O)Nc2nccs2)cn1 | 1.5 | 8% | 0.7 | . | . | . | . | . | 1
CCOc1ccc(CCNC(=O)COC(=O)CCC(=O)c2cccs2)cc1OCC | -0.8 | . | 0.64 | 3 | 6 | -1.5 | i | -0.8 | -10
COc1ccc(/C=N/NC(=O)CCCOc2ccc(Cl)cc2Cl)cc1[N+](=O)[O-] | 0.0 | ? | . | . | . | . | . | . | -2
COc1ccc(OC)c(N2C(=O)CC(Cc3ccc(Cl)cc3)C2=O)c1 (centres undefined) | 4.1 | -1% | 0.7 | . | . | . | . | . | -1
Cc1noc(C)c1S(=O)(=O)N1CCCC(C(=O)Nc2nccs2)C1 (centres undefined) | -1.7 | -3% | 0.71 | 8 | -1 | 1.6 | i | 4.6 | -6
COc1ccc(C)cc1NS(=O)(=O)c1ccc(NS(=O)(=O)c2ccc(NC(C)=O)cc2)cc1 | -6.5 | 3%&6% | 0.68 | -5 | -8 | -1.7 | + | -47 | 0
C[C@H]1CN([C@@H](C)CO)C(=O)c2cccc(NC(=O)c3ccncc3)c2O[C@H]1CN(C)S(=O)(=O)c1ccccc1 | . | . | . | 0 | 9 | -0.1 | i | 0.4 | .
CCCCCCCC(=O)N/N=C/c1ccc(Br)cc1 | -0.5 | -4% | . | . | . | . | . | . | 1
CCC(=O)N1C[C@@H](C)[C@@H](OC)CN(C)C(=O)c2cc(NC(=O)Nc3ccccc3)ccc2OC[C@@H]1C | . | . | . | -2 | -3 | 2.1 | i | -4.8 | .
COc1ccc(C(=O)CSC2=NS(=O)(=O)c3cc(Cl)ccc3N2)cc1 | -2.6 | -6% | 0.73 | 0 | 6 | -0.4 | i | -16 | .
N#Cc1c(-c2ccccc2)nc2n1CCS2 | 4.7 | 81% | 0.66 | 2 | -6 | -0.3 | i | -1.3 | -4

Some of the compounds tested; count on the stated rates, not on these rows.
